Bioassay records (PubChem)
Vaccinia mCherry: vaccinia inhibition (mCherry reporter); actives 0.63% (n = 310,000); Potency, µM (titrated, usually from 36.5 µM), without a hit: at the top dose activity change, negative = inhibition, usual class: inhibitors; Vaccinia virus mCherry reporter infection, fluorescence; about a quarter of the inactives have no number; AID 720579; active = well fitted inhibition curve with a large enough effect; inconclusive = small, poorly fitted or top-dose-only effect; inactive = no such curve, though single readings can be large or run the other way; tested in A549 cells; also: nearly all actives have a fitted effect of over 35% in size; inactives centre near -10
VACV Venus inh: inhibitors of vaccinia virus (Venus reporter); Vaccinia virus Venus reporter expression, fluorescence; actives 0.46% (n = 330,000); Potency, µM (series often up to 36.5 µM), without a hit: at the top dose activity change, negative = inhibition, hits mostly inhibitors; active means well fitted inhibition curve with a large enough effect; inconclusive means small, poorly fitted or top-dose-only effect; inactive means no such curve, though single readings can be large or run the other way; tested in A549 cells; also: nearly all actives have a fitted effect of over 30% in size; inactives centre near -10
The depositor's hits bear a star; i = inactive; ? = inconclusive; . = no result given; & = joins results of further samples; [ ] = another dose, or the depositor's remark. % is scaled to controls: 0 for no effect and ±100 for the full control effect; potency is read from the fitted curve at half-maximal effect.

Screens in order – Vaccinia mCherry, VACV Venus inh
CCOC(=O)C1(C)/C(=N/Nc2ccccc2OC)C(=O)C(=O)N1c1ccccc1 (stereo unspecified)
    i, -7%
O=C(Nc1cccc(Cl)c1N1CCOCC1)c1cccnc1
    -7%, 12%
CC(=O)Nc1c2c3c(cccc3n(C)c1=O)C(=O)c1ccccc1-2
    ., 5%
COCCCNc1nc2c(c(=O)n(C)c(=O)n2C)n1Cc1cccc(OC)c1
    ., -30%
COC(=O)c1c(NC(=O)/C=C/C(=O)O)sc(C)c1-c1ccc(C)cc1
    ?, ?
Cc1ccc(CCNC(=O)c2cnc3c(-c4ccc(F)cc4)c(C)nn3c2C)cc1
    -25%, -3%
C#CCOCCOCCOCCNc1nc(N2CCOCC2)nc(N2CCN(C(=O)[C@H]([C@@H](C)O)n3cc(CCCCN)nn3)CC2)n1
    i, -8%
O=c1c2cc3c(cc2n(Cc2ccccc2)c(=O)n1Cc1nc(-c2ccccc2)no1)OCO3
    -7%, 2%
CCSC(=O)N1c2ccc(OC)cc2C=CC1C#N (stereo unspecified)
    ?, ?
CNC(=S)N/N=C(\C)c1ccc2c(c1)OCCO2
    -19%, -22%
C#CCOCCOCCOCCNc1nc(N2CCN(C(=O)[C@H](CCC(=O)O)n3cc([C@@H](N)CO)nn3)CC2)nc(N2CCN(C(=O)[C@H](CCC(=O)O)n3cc([C@@H](N)CCSC)nn3)CC2)n1
    i, -11%
COc1cccc(/C=C/C(=O)OCC(=O)NC2CC2)c1OC
    i, 2%
Cc1coc2c(C)c3oc(=O)c(CCC(=O)N4C[C@H]5C[C@@H](C4)c4cccc(=O)n4C5)c(C)c3cc12
    -9%, 0%
CC(=O)c1sc(NC(=O)c2ccccc2F)nc1C
    i, -12%
CS(=O)(=O)N1CCN(C(=O)c2ccncc2)CC1
    ., -5%
CCCCn1c(N)c(N(CCOC)C(=O)CCNC(=O)c2ccccc2Cl)c(=O)[nH]c1=O
    i, -12%
Cn1ccnc1CN1CCN(C(=O)c2cc(COc3ccc(F)c(F)c3)on2)CC1
    -14%, -10%
O=C1NC(=O)C(=Cc2csc3ccccc23)C(=O)N1
    i, -17%
O=C(CSc1nc2nccnc2c(=O)n1CCc1c[nH]c2ccccc12)Nc1ccc(F)cc1
    -22%, -17%
CSCc1c(C(=O)NC2CCCc3ccccc32)oc2ccccc12 (stereo unspecified)
    -8%, 3%

Shown with each value named: part of the list above.
> CNC(=S)N/N=C(\C)c1ccc2c(c1)OCCO2
  Vaccinia mCherry: -19% | VACV Venus inh: -22%
> C#CCOCCOCCOCCNc1nc(N2CCN(C(=O)[C@H](CCC(=O)O)n3cc([C@@H](N)CO)nn3)CC2)nc(N2CCN(C(=O)[C@H](CCC(=O)O)n3cc([C@@H](N)CCSC)nn3)CC2)n1
  Vaccinia mCherry: i | VACV Venus inh: -11%
> COc1cccc(/C=C/C(=O)OCC(=O)NC2CC2)c1OC
  Vaccinia mCherry: i | VACV Venus inh: 2%

The main list resumes, starting four compounds before the break.
Screens in order – Vaccinia mCherry, VACV Venus inh
Cn1ccnc1CN1CCN(C(=O)c2cc(COc3ccc(F)c(F)c3)on2)CC1
    -14%, -10%
O=C1NC(=O)C(=Cc2csc3ccccc23)C(=O)N1
    i, -17%
O=C(CSc1nc2nccnc2c(=O)n1CCc1c[nH]c2ccccc12)Nc1ccc(F)cc1
    -22%, -17%
CSCc1c(C(=O)NC2CCCc3ccccc32)oc2ccccc12 (stereo unspecified)
    -8%, 3%
Cc1ccc(NC(=O)c2cc([N+](=O)[O-])ccc2N2CCOCC2)cc1C
    -17%, -13%
CC(=O)OCP(C)(=O)COC(C)=O
    ., -8%
O=C(NC(=S)Nc1nc(-c2cccc3ccccc23)cs1)c1cc2ccccc2o1
    -17%, -2%
CC(C)(C)c1ccc(C(=O)N2CCC(C(=O)NCc3ccncc3)CC2)cc1
    -8%, -3%
O=C(COc1ccc(Cl)cc1)Nc1cccc(S(=O)(=O)NC2=NCCCCC2)c1
    i, -22%
NCC(O)COc1ccc2c(c1)OCO2 (stereo unspecified)
    ., 7%
O=c1[nH]c(=O)c2ncn(C3OC(CO)C(O)C3O)c2[nH]1 (stereo unspecified)
    -23%, -11%
Cc1cccc(OC(C)C(=O)Nc2ccccc2C(=O)N2CCCCC2)c1 (stereo unspecified)
    -14%, -13%
O=C(NCCc1c[nH]c2ccccc12)/C(=C\c1cccnc1)NC(=O)c1cccs1
    -12%, -20%
Cc1ccc(Cn2cnc3c(oc4ccccc43)c2=O)cc1
    1%, -9%
CC(C)(C)NC(=O)/C=C/c1ccc(C(F)(F)F)cc1
    i, -9%
COc1ccc(N=C2SC(C(N)=O)CC(=O)N2CCc2ccc(OC)c(OC)c2)cc1 (stereo unspecified)
    ., -11%
O=C(O)COc1cnc2ccccc2n1
    -13%, -7%
CSc1ccccc1NC(=O)CN(C)CC(=O)Nc1ccccc1N1CCOCC1
    -11%, -6%
O=[N+]([O-])c1ccc(N/N=C/c2cccc(O)c2O)cc1
    -21%, -22%
Cc1cc(C)cc(Oc2coc3c(CN4CCN(C)CC4)c(O)ccc3c2=O)c1
    -13%, 2%
O=C(Oc1cccc2ccccc12)c1ccccc1
    8%, 1%
CCN(CC)C(=O)c1sc2c(c1C)c(=O)n(-c1ccc(Cl)c(Cl)c1)c(=O)n2Cc1ccccc1C#N
    -28%, -25%
O=C1CC(c2cccc(Cl)c2)C(n2cncn2)C(=O)C1C1NCCc2ccccc21 (stereo unspecified)
    i, -6%
CCCNC(=O)c1cc(S(=O)(=O)N2CCC3(CC2)OCCO3)ccc1F
    -12%, 0%
CN(Cc1cccs1)C(=O)CCCc1c[nH]c2ccccc12
    -16%, -19%
Cc1cc(C(=O)NC(=S)Nc2ccccc2N2CCCC2)ccc1[N+](=O)[O-]
    i, -9%
COc1ccc(S(=O)(=O)N2CCOC2CNC(=O)C(=O)NCCc2ccccc2)cc1 (stereo unspecified)
    14%, -6%
Cc1nc2c(C)cccn2c1/C(O)=C1\C(=O)C(=O)N(CCN(C)C)C1c1cccs1 (stereo unspecified)
    ?, -11%
COc1ccccc1N(Cc1ccccc1)S(=O)(=O)c1cccc(C(=O)Nc2ncccc2C)c1
    i, -26%
COC(=O)c1ccccc1NC(=O)COc1ccccc1[N+](=O)[O-]
    -4%, -6%
C/C=C/c1cnc2c(c1)C(=O)N([C@H](C)CO)C[C@H](C)[C@@H](CN(C)C(=O)CN1CCOCC1)O2
    -13%, -6%
Cn1c(=O)c2c(nc(SCc3cccnc3)n2Cc2ccccc2)n(C)c1=O
    -28%, -9%
CCOc1ccccc1N(C)C(=O)c1sc2nc3n(c(=O)c2c1C)CCCC3
    -1%, -7%
CS(=O)(=O)c1nc(S(=O)(=O)c2ccc(Cl)cc2)c(NCCCn2ccnc2)s1
    i[7.34 µM], -11%[7.34 µM]
S=C(Nc1ccc2nc(-c3ccccn3)c(-c3ccccn3)nc2c1)N1CCCCCC1
    i, -9%
Cc1cc(C)cc(NC(=O)C(=O)NCC2CCCN2S(=O)(=O)c2cccs2)c1 (stereo unspecified)
    -25%, -20%
Cc1cc(C(=O)CSc2ccccc2)cc(C)c1O
    ?, -16%
O=C(Cc1cccs1)N1Cc2ccccc2-n2nncc2C1
    i, -8%
Cc1cccc(NC(=O)c2c(C)nn(-c3ccccc3)c2Cl)c1
    -7%, -10%
COc1ccccc1NS(=O)(=O)c1cccc(NC(=O)NC2CCCCC2)c1
    -13%, ?
COc1cc(Cl)c(C)cc1NC(=O)c1ccc2c(SCC(=O)O)c3c(nc2c1)CCCC3
    -2%, -1%
CCOC(=O)c1[nH]cnc1C(=O)Nc1ccccn1
    -4%, -5%
COc1ccc(-c2cc(C(=O)OCC(=O)N(C)C3CCS(=O)(=O)C3)c3ccccc3n2)cc1OC (stereo unspecified)
    -12%, ?
CCC1(C)CN(S(=O)(=O)OCC(Cl)(Cl)Cl)C(=O)N1 (stereo unspecified)
    i, -4%

The listing continues:
compound | Vaccinia mCherry | VACV Venus inh
COc1ccccc1N1CCN(Cc2cc3c(cc2O)OCO3)CC1 | ? | -29%
CC(=O)N/N=C/C1=CCC2CC1C2(C)C (stereo unspecified) | i | -12%
O=C(Nc1ccc(F)cc1)C1CC(=O)N(Cc2ccco2)C1 (stereo unspecified) | -17% | -5%
C[C@H](CO)N1C[C@H](C)[C@@H](CN(C)Cc2ccc(C(=O)O)cc2)Oc2ccc(NS(C)(=O)=O)cc2C1=O | i | -9%
O=C1C(Sc2cccc(F)c2)=C[C@@]2(O)CC[C@@H](O)[C@]1(Sc1cccc(F)c1)[C@H]2O | -12% | -8%
BrC(=C\c1ccccc1)/C=N/N1CCN(c2ccccn2)CC1 | -24% | -6%
CCn1nc(C)c(CNCc2cn[nH]c2-c2cc3ccccc3o2)c1C | -21% | -9%
CC(=O)c1ccc(NC(=O)C(C)OC(=O)C(C)Oc2cccc(C)c2)cc1 (stereo unspecified) | -15% | -3%
CCOC(=O)NCc1ccc(S(=O)(=O)Nc2ccc(C)cc2)cc1 | i | -19%
Cc1nc2sc(-c3ccccc3)cc2c(=O)[nH]1 | -7% | -1%
Cc1ccc(OCC(=O)n2nc(C)cc2C)c(Br)c1 | i | -12%
CCC1CN1P(=S)(N1CC1CC)N1CC1CC (stereo unspecified) | -15% | -21%
COc1ccc(C(=O)Nc2ccccc2C(=O)NC2CC2)c(OC)c1OC | -11% | -15%
N#C/C(=C/c1ccc(F)cc1)C(N)=S | 0% | -6%
COc1ccc(S(=O)(=O)NCc2cc(-c3ccccc3Cl)no2)cc1 | i | -15%
CCOc1ccc(-n2ccnc2SCC(=O)N2CCCc3ccccc32)cc1 | -17% | -23%
CC(=O)OC(C)=O | i | -11%
CCn1nc(C)c(/C=N/NC(=O)c2c[nH]c3ccccc23)c1C | -17% | -10%
CC(C)NC(=O)C(=O)NCCCOC(C)C | i | -20%
O=C(Nc1cccnc1)/C(N=Nc1c(Cl)cccc1Cl)=C(\O)c1ccccc1 | -11% | -6%
Clc1ccccc1-c1nnc(-c2ccccc2CNc2ccccc2)o1 | -8% | -9%
CC1CCc2c(sc3nc(SCC(=O)NCc4ccco4)nc(N)c23)C1 (stereo unspecified) | . | ?
Cc1c(C(=O)OCc2ccccc2)[nH]c2c1C(=O)CC(c1ccco1)C2 (stereo unspecified) | ? | ?
O=[N+]([O-])CC1(n2nc3ccccc3n2)CCCCC1 | i | -2%
CN(Cc1cccnc1)Cc1cn(Cc2ccccc2)nc1-c1ccc2c(c1)OCO2 | -1% | 6%
O=C(O)CCCC(=O)Nc1ccc(C(=O)N2CCCCC2)cc1 | i | -13%
Cc1c(NC(=O)c2ccc3c(c2)OCO3)cccc1-c1nc2ccccc2s1 | -2% | -7%
Cc1cc(=O)oc2c3c(cc(OCC(=O)NC(C)C)c12)OC(C)(C)CC3 | i | -19%
Cn1c(=O)[nH]c(=O)c2c1nc(SCC(=O)Nc1ccccc1)n2Cc1ccccc1 | i | -9%
Cn1c(=O)c2[nH]cnc2n(C)c1=O | -1%&-9%&-14% | -7%&-12%&-7%&-23%&-10%
Cc1ccc(C)c(S(=O)(=O)N2CCCOC2CNC(=O)C(=O)NCCc2ccccc2)c1 (stereo unspecified) | -9% | -30%
Cc1cc(F)ccc1S(=O)(=O)NCC(c1ccc2c(c1)OCO2)N1CCOCC1 (stereo unspecified) | -13% | -13%
Cc1ccc(C)c(NC(=O)COc2cccc3c2CCN(Cc2ccccc2)C3=O)c1 | -11% | -8%
COc1cccc(NC(=O)CN2C(=O)CSc3ccc(S(=O)(=O)N4CCCC4)cc32)c1 | 3% | 4%
CCC(C)NC(=O)CSc1nc2c(sc3ccccc32)c(=O)n1CCc1ccc(OC)c(OC)c1 (stereo unspecified) | 10% | 2%
Cc1ccc(-n2nc(CO)c(C(=O)NCc3cccnc3)n2)cc1 | -8% | -7%
CCCCCC(=O)Nc1ccc(-c2csc(C)n2)cc1 | i | -9%
O=C(COC(=O)c1cccc(S(=O)(=O)N2CCCC2)c1)c1ccc(F)cc1 | i | -12%
COc1ccc(CCNC(=O)C2CCC(CNS(=O)(=O)c3ccc(C)cc3)CC2)cc1OC (stereo unspecified) | -13% | -10%
COc1ccc(NC2=CC(=O)CC(c3ccccc3)C2)c(OC)c1 (stereo unspecified) | ? | ?
COc1ccc(CCNC(=O)c2ccc(CNc3nc(=S)[nH]c4ccccc34)cc2)cc1OC | -24% | -26%
CCN(CC)CC1CN(N=Cc2ccc([N+](=O)[O-])o2)C(=O)O1 (stereo unspecified) | ? | 16µM*
CN(C)Cc1c(O)ccc2cc(-c3nc4ccccc4n3C)c(=O)oc12 | -10% | -9%
O=C(O)/C=C/C(=O)Nc1ccc(F)cc1F | -18% | -9%
COC(=O)CSc1nc2ccccc2c(=O)n1Cc1ccccc1 | -3% | -6%
Cc1cccc(COCC(Cc2ccccc2)N2CCN(C(=O)c3cccc(Cl)c3)CCC2=O)c1 (stereo unspecified) | i | ?
CCC(C)[C@H](NC(=O)N1CC(=O)Nc2ccccc21)C(=O)N[C@H](Cc1c[nH]c2ccccc12)C(=O)O (stereo partly specified) | 9% | -3%
CCC(C)c1ccc(OCCCCN2CCOCC2)cc1 (stereo unspecified) | i | -2%
OC(COc1ccc2c(c1)CCC2)Cn1cnc2ccccc21 (stereo unspecified) | . | ?

The order is random, and some 0.87% of all compounds hit somewhere here.
